Screening data from PubChem BioAssay.
CapD inh: blocks the Bacillus anthracis CapD enzyme | AID 492967 | 0.23% of 140,000 active | purified CapD enzyme, fluorescence intensity read-out; active compounds read low; some hits fall short of the stated cut | z-score (no concentration beside the values);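 active means z-score under -4 in either of two replicates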;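 further: stock transfer was 100 nL into about 40 µL; score is relative to mean and spread of the plate; one replicate is shown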
AID504770: E. coli YBA685 growth inhibition, screen for V. cholerae RctB inhibitors | E. coli YBA685 rctB-dependent plasmid, OD600 growth, 3 h; active compounds read low | z-score (test concentration not listed) | 0.27% of 130,000 active;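 active means z-score under -2 on both plates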;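 further: wells of about 30 µL received 100 nL stock; score is relative to mean and SD of the test wells; the first replicate is given; strong numbers were not always called active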
Numbers without * were called inactive; i = inactive; . = no result given. This is a subset; rates above refer to the full screens.

Compound | CapD inh | AID504770
CCC(C)NC(=O)Cn1cnc2c1c(=O)n(C)c(=O)n2C (stereo not drawn) | 0.49 | -0.65
CN(C)c1ccc(CNc2nc3ccccc3n2CCN2CCCCC2)cc1 | -0.71 | 0.25
CCS(=O)(=O)c1ccc2oc(Nc3ccc(C(C)C)cc3)nc2c1 | . | 0.6
COc1cccc(/C=N/n2cnnc2)c1OC | -0.075 | 1.6
NC(=O)c1ccccc1NC(=O)c1cccs1 | 1.6 | .
COc1ccccc1NC(=O)CCN1CC(C)CC(C)C1 (stereo not drawn) | . | -0.55
COc1cccc(C(=O)Cn2c(=O)n(CCC(=O)NCC3CCCO3)c(=O)c3cc(OC)c(OC)cc32)c1 (stereo not drawn) | -0.43 | -0.75
COC(=O)c1c(N)n(C2CCCC2)c2nc3ccccc3nc12 | 69 | -0.45
O=C(NCc1ccc2c(c1)OCO2)c1ccc(CN2CCOCC2)cc1 | . | 2.2
COc1ccc(C(=O)CC2(O)C(=O)N(CN3CCCCC3)c3ccc(Br)cc32)cc1 (stereo not drawn) | 0.15 | .
CC(=O)n1c(O)c(/C=C2\C=c3ccc(C)cc3=NC2=O)sc1=N | 2.4 | -0.15
CCOc1ccc2c(c1)C(C)CC(C)(C)N2C(=O)Nc1ccccc1 (stereo not drawn) | 1.4 | .
C(=Nc1cccnc1)c1c[nH]c2ccccc12 | 14 | -0.65
Cc1sc2nc3c4ccccc4c(N4CCC(C)CC4)nn3c(=O)c2c1C | 0.035 | -0.6
COc1ccc2cc(C(=O)NCc3ccco3)c(=Nc3ccc(C(=O)O)cc3)oc2c1 | 0.79 | .
CC(C)(C)C(=O)CSC1=NNC(c2ccccn2)S1 (stereo not drawn) | -2.6 | -0.4
O=C(O)C1C2CCC3C(OC(=O)C31)C2Cl (stereo not drawn) | 6 | .
CN(C)c1ccc(-c2nc3cc(N)ccc3o2)cc1 | 65 | 0.2
O=c1[nH][nH]c(=O)c2ncccc12 | . | -0.55
O=S(=O)(NCc1csc(-c2cccs2)n1)c1ccc2c(c1)CCO2 | 56 | -0.5
CCn1cc(C(=O)N2CCC(C(=O)OC)CC2)c(=O)c2ccc(C)nc21 | . | 0.65
Cc1cc(C)n(-c2cc(-c3ccccc3)nc3ncnn23)n1 | 1.3 | 0.45
O=C(CN1CCOCC1)N1OC[C@@H]2COc3ccc4ccccc4c3[C@@H]21 | 0.11 | .
CSc1nnc(-c2ccc(C(F)(F)F)cn2)o1 | 1.2 | -1.1
Cc1ccccc1NC(=O)c1c(NC(=O)c2ccncc2)sc2c1CCCCC2 | 0.66 | .
Cc1c(Cl)c(C)c(C2=NON3N(C(=O)c4ccc(-c5ccccc5)cc4)c4ccccc4N23)c(C)c1Cl | 0.57 | .
O=C(NCCc1c[nH]c2ccc(O)cc12)OCc1cccc(OC(F)(F)F)c1 | -0.12 | .
O=C(O)CNC(=O)c1ccc(-c2ccccc2)cc1 | . | -0.7
COc1ccccc1-c1nnc(NC(=O)c2ccccc2)o1 | 0.015 | 0.25
O=C(CC1Sc2ccccc2NC1=O)NNC(=O)OCCSCc1ccc2nonc2c1 (stereo not drawn) | -1.2 | .
COc1ccccc1/C=C1/SC(=S)NC1=O | -0.59 | 0.15
O=C1CN(c2ccccc2)S(=O)(=O)c2ccccc2N1 | 0 | -0.6
O=C(CSc1nnc(NC(=O)c2cccc([N+](=O)[O-])c2)s1)Nc1ccc2c(c1)OCO2 | 0.26 | .
CN1C(=O)N(c2ccc(Cl)cc2)C(C)(O)CC1(C)C (stereo not drawn) | 0.1 | -0.5
COc1cc(C(=O)OCC(=O)N2CCCC2=O)cc(OC)c1C | . | 0.95
O=c1c(Cc2c(F)cccc2Cl)c(O)ccn1Nc1ncccc1[N+](=O)[O-] | -0.24 | .
c1ccc(N2CCN(c3ccccc3)C2c2cccc3ccccc23)cc1 | -0.27 | .
Cc1ccc(S(=O)(=O)N2CCSC2C(=O)O)cc1 (stereo not drawn) | . | 0.45
Cc1cccc(/C=C2\SC(=O)N(CCC(=O)Nc3ccccc3N3CCOCC3)C2=O)c1 | . | 1
CCOC(=O)C1=C(C)N=c2s/c(=C\c3ccc([N+](=O)[O-])cc3)c(=O)n2C1c1ccc(OC)c(OC)c1 (stereo not drawn) | -0.13 | .
COc1ccccc1C(O)(CCN1CCCCC1)c1ccccc1 (stereo not drawn) | -0.23 | -0.8
COc1cc2c(cc1OC)C(c1ccc(Cl)cc1Cl)NC(=O)C2 (stereo not drawn) | 1.4 | 0
CN(CCCNC(=O)C1CCN(c2ccc(C(F)(F)F)cn2)CC1)c1ccccc1 | 2.4 | .
C=CCOc1ccc(/C(CC)=N/O)cc1OC | -0.3 | -0.65
COc1ccc(CCC(=O)Nc2ccc3nc(N4CCC(C)CC4)cc(C)c3c2)cc1 | -0.12 | .
CCCOc1cc(C(N)=O)ccc1OC | 1.4 | -0.5
O=C(CSc1ccccn1)Nc1ccc2nc(SCC(=O)Nc3ccc(F)cc3)sc2c1 | -0.025 | .
COc1ccc(-n2ncc3c(N4CCN(c5ccc([N+](=O)[O-])cc5)CC4)ncnc32)cc1 | 0.025 | .
CCCc1[nH]nc2c1C(c1c(Cl)noc1C)C(C#N)=C(N)N2c1ccccc1 (stereo not drawn) | 1.2 | -0.85
COc1ccc(N=c2oc3ccc(Cl)cc3cc2C(=O)NCc2ccco2)cc1OC | . | -0.45
C=CCn1c(/N=C/c2ccc3c(c2)OCO3)nc2ccccc21 | . | -0.7
O=C(c1ccc(Br)cc1)c1cc2c(cc1Br)OCCO2 | -0.22 | .
O=c1oc2ccccc2c(O)c1Cc1ccccc1 | 11 | -0.5
Nc1nnc(SCC(=O)Nc2ccc3nc(SCC(=O)Nc4ccccc4)sc3c2)s1 | 0.06 | .
CC(C)C1C(C=C(Cl)Cl)C1C(=O)N1CCN(Cc2ccccc2)CC1 (stereo not drawn) | 0.03 | -0.25
Cc1cc(C)nc(SCCS(=O)(=O)c2ccc(C(C)(C)C)cc2)n1 | -0.8 | -0.25
CC(C)C(=O)Nc1ccc(C2=Nn3cc(-c4ccccc4)nc3SC2C)cc1 (stereo not drawn) | . | -0.15
COc1ccc2c(CC(=O)OCC(=O)Nc3c(C)n(C)n(-c4ccccc4)c3=O)coc2c1 | . | -0.3
COC(=O)c1cccc(NC(=O)C2(c3ccccc3)CCOCC2)c1 | -0.44 | -0.85
Nc1cccc2nsnc12 | -1 | .

Other records.
Compound | CapD inh | AID504770
O=C1C=C(c2ccccc2)OC2(CCCCC2)O1 | 0.26 | -0.45
CCOc1cc(/C=C2\C(=O)Nc3ccccc32)ccc1O | -1.3 | 0.05
Cc1noc(C)c1C(=O)OCc1ccc(-c2ccc(F)cc2F)o1 | -0.13 | 0.85
O=c1oc2ccccc2c(O)c1[N+](=O)[O-] | -0.85 | .
Cc1ccccc1Cc1c(C)nc2ncnn2c1C | 0.14 | -0.65
CCOC(=O)c1oc2ccccc2c1COC(=O)[C@H](C)NC(=O)c1ccco1 | . | 0.9
Cc1[nH][nH]c(=O)c1N=Nc1ccc(S(=O)(=O)N2CCCCC2)cc1 | . | -0.3
CN(C)CCC(C)(O)Cc1ccccc1 (stereo not drawn) | 0.18 | -0.85
Cc1nc(SCCC(=O)O)c2c3c(sc2n1)CCCC3 | 2.3 | 1.2
CS(=O)(=O)c1cc(C#N)c(N2CCN(C(=O)c3ccc(Cl)cc3)CC2)nc1-c1ccc(Cl)cc1 | 7.7 | .
CCCn1c(O)c(C2=NC(=S)NC2=O)c2ccccc21 | -0.21 | 0.7
CCCCN1C(=O)/C(=C2\SC(=S)N(NC(=O)c3ccccc3C)C2=O)c2ccccc21 | -0.35 | .
O=C(/C(C=Nc1cnc2ccccn2c1=O)=C(\O)c1ccccc1)c1ccccc1 | -0.49 | .
Cn1c(=O)c2c(ncn2CC(=O)Nc2ccncc2)n(C)c1=O | -0.12 | 0.05
CCOC(=O)C1CCN(S(=O)(=O)c2ccc(-c3csc(C)n3)s2)CC1 | 0.34 | -0.45

Other entries:
molecule | CapD inh | AID504770
COc1ccc(-n2nc(C(=O)O)c(C)c(C#N)c2=O)cc1 | -1.4 | 0.7
Cc1c(C(N)=O)sc(C(N)=O)c1C | 0.49 | -0.05
C=CCNC(=O)CN1CCC(n2c(C)nc3cc(C(F)(F)F)ccc32)CC1 | . | -0.05
Cc1ccc(CSc2nnc(-c3cnccn3)s2)cc1 | 6.3 | 0.2
COc1cc(S(=O)(=O)N2CCN(Cc3ccc4c(c3)OCO4)CC2)c(OC)cc1C | . | -0.1
Cc1[nH]c(=O)c(C#N)c(C)c1Cl | 0.04 | .
CC(=O)C1=NN(c2cccc(Cl)c2)C2(S1)c1ccccc1C(c1ccc(Cl)cc1)=NN2c1ccccc1 (stereo not drawn) | -0.55 | .
O=C(COC(=O)c1cc[n+]([O-])cc1)Nc1ccccc1Cl | 0.63 | -0.35

The list goes on; the last five above are carried over.
molecule | CapD inh | AID504770
Cc1ccc(CSc2nnc(-c3cnccn3)s2)cc1 | 6.3 | 0.2
COc1cc(S(=O)(=O)N2CCN(Cc3ccc4c(c3)OCO4)CC2)c(OC)cc1C | . | -0.1
Cc1[nH]c(=O)c(C#N)c(C)c1Cl | 0.04 | .
CC(=O)C1=NN(c2cccc(Cl)c2)C2(S1)c1ccccc1C(c1ccc(Cl)cc1)=NN2c1ccccc1 (stereo not drawn) | -0.55 | .
O=C(COC(=O)c1cc[n+]([O-])cc1)Nc1ccccc1Cl | 0.63 | -0.35
Cc1nc(N2CCN(c3ccccn3)CC2)c2c(C)c(C(=O)N3CCCCC3)sc2n1 | 0.005 | .
COc1ccc(CN2CCCC(COC(=O)N3CCC(C(=O)c4ccc(F)cc4)CC3)C2)cc1OCc1ccccc1 (stereo not drawn) | 0.31 | .
Cc1ccc(C(=O)NN2C(=O)C3CC=CCC3C2=O)s1 (stereo not drawn) | 1.7 | .
O=C(O)CCSCCc1ccncc1 | -0.08 | -1.1
COc1ccc(C(CCN)C(C)C)cc1 (stereo not drawn) | -0.26 | -1
C=CCN1C(=O)/C(=C2\SC(=S)N(Cc3ccco3)C2=O)c2cc(Br)ccc21 | -0.005 | .
O=C(NCCN1CCOCC1)c1ccc(-n2cc(-c3ccncc3)cn2)cc1 | 4.3 | .
CCOC(=O)C1CCN(C(=O)COC(=O)c2ccc(Br)cc2)CC1 | . | 0
Cc1ccc(S(=O)(=O)N(C)c2ccccc2)cc1 | . | -0.5
COc1ccc(N=Cc2ccc(Sc3ccccn3)o2)cc1 | -2 | 0.15
COc1ccc(Cl)cc1S(=O)(=O)N(C)C1CCN(Cc2ccccc2C(F)(F)F)C1 (stereo not drawn) | 0.77 | .
N#CCCN1CCn2c1nc1ccccc12 | 0.055 | -0.05
CC1CN(C(=O)CCC(=O)O)CC(C)O1 (stereo not drawn) | -0.18 | -0.85
Cc1cc(C)nc(NS(=O)(=O)c2ccc(NC(=O)CSc3nc4c(cc3C#N)CCCC4)cc2)n1 | -0.09 | .
CNc1ccc(CSc2ccc(C(F)(F)F)cn2)cc1C(F)(F)F | 0.05 | .
COc1ccc(-c2csc(NC(=O)CCOc3ccccc3)n2)cc1 | 0.69 | 0.95

A different layout for part of the listing above:
Below each SMILES – CapD inh, AID504770
> N#CCCN1CCn2c1nc1ccccc12
  0.055, -0.05
> COc1ccc(Cl)cc1S(=O)(=O)N(C)C1CCN(Cc2ccccc2C(F)(F)F)C1 (stereo not drawn)
  0.77, .
> Cc1ccc(S(=O)(=O)N(C)c2ccccc2)cc1
  ., -0.5
> COc1ccc(N=Cc2ccc(Sc3ccccn3)o2)cc1
  -2, 0.15
> Cc1cc(C)nc(NS(=O)(=O)c2ccc(NC(=O)CSc3nc4c(cc3C#N)CCCC4)cc2)n1
  -0.09, .

New compounds follow:
molecule | CapD inh | AID504770
COc1cc(C)c(/C=N/NC(=O)c2cc(Cl)ccc2OC)cc1C | 1.2 | .
Nc1nc(C2COc3ccccc3O2)ncc1S(=O)(=O)c1ccc(Cl)cc1 (stereo not drawn) | 1.1 | -0.9
CCOC(=O)CCc1c(C)nn(-c2ccc(N3CCOCC3)nn2)c1C | 0.23 | 0.15
CC(C)NC(=O)c1cccc2cc[nH]c12 | 1.5 | .
N#Cc1cc(N)ccc1Sc1ccccc1 | 64 | -0.55
COCCNC(=O)C1CCN(c2ncc(-c3ccc(Cl)cc3)cn2)CC1 | 0.82 | .
OC1(c2ccc(Br)cc2)C[N+]2=C(CCCCC2)N1c1ccccc1 (stereo not drawn) | -0.12 | .
CCOC(=O)c1cc2c(nn3cc(C(=O)c4ccccc4O)cnc23)[nH]c1=O | . | -0.5
COc1cc(C2Nc3ccccc3O2)cc(OC)c1OC (stereo not drawn) | 2.1 | .
Cc1ccc(NC(=O)c2ccccc2C(=O)O)cc1Br | i | 1.2
O=C(O)/C=C/C(=O)Nc1ccc(-n2ccc(C(F)(F)F)n2)cc1 | -1.3 | -1
COC(=O)CCc1n[nH]c(=S)[nH]c1=O | . | -0.55
O=C(Nc1ccncc1)c1ccccc1 | -0.29 | .
O=C(NC1CCCC1)c1ccc(CS(=O)(=O)c2ccc(Cl)cc2)o1 | 0.53 | 0.4
Cc1nc(SCc2c(F)cccc2Cl)nc(OC(=O)N(C)C)c1C | 0.29 | 0.25
CC(=O)Nc1cccc(NS(=O)(=O)c2ccc(C)cc2)c1 | -0.22 | -0.85
c1ccc2c3c(c(CN4CCCC4)cc2c1)COC3 | 0.44 | -0.6
C1CCCCCC2(CCCCC1)OCC(CN1CCCCC1)O2 (stereo not drawn) | -0.14 | -1.2
